# Screening data deposited in PubChem BioAssay by Johns Hopkins Ion Channel Center.
# KCNQ2 inh: KCNQ2 potassium channel inhibitors, primary screen, cell-based, CHO-K1, FluxOR thallium flux, B-score (AID 2156); Potassium voltage-gated channel subfamily KQT member 2 (Rattus norvegicus), O88943; B-score at 10 µM; hit rate 1.1% among 310,000; 20 min; active compounds read low; only compounds with negative scores are shown here; some inactives read as strong as hits;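 active means fluorescence ratio B-score at most minus 3 library SDs, with starting brightness B-score within 2 library SDs, cut at about -5.5 in these data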
# Target sequence (O88943 whole entry, looked up): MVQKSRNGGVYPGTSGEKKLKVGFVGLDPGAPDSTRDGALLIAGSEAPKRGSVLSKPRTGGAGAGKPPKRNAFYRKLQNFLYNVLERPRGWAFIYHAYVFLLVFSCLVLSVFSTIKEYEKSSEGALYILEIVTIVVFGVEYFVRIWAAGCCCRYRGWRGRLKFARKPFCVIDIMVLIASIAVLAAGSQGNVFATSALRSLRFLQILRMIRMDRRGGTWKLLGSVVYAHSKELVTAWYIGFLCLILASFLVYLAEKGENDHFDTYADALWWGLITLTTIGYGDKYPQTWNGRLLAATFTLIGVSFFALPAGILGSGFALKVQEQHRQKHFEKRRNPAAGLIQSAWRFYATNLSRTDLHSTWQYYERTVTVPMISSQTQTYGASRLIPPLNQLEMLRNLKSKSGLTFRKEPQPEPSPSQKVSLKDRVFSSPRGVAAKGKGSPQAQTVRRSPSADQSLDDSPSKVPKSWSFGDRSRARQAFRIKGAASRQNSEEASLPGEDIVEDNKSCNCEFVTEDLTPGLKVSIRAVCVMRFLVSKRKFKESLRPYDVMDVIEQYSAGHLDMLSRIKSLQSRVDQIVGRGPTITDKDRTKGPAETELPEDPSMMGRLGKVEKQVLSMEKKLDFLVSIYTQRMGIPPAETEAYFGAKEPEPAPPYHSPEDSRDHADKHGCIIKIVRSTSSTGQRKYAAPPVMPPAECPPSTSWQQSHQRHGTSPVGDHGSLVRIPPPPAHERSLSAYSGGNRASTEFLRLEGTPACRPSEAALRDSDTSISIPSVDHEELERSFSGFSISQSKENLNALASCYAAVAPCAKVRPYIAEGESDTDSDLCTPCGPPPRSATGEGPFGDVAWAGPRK
# KCNQ2 inh baseline: also measured in KCNQ2 inh; calls as there; B-score; measured here: initial fluorescence intensity artifact check;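 brightness before thallium and not channel activity; 0 = typical well and far values either way flag optical interference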
# The depositor's hits bear a star; i = inactive. This is a subset, so the mix of outcomes need not match the whole.
[1] CNC(=O)CSc1nnc(COc2ccc([N+](=O)[O-])cc2)n1C
[2] CCOC(=O)C1=C(C)OC(N)=C(C#N)C1c1cc(C)sc1C (stereo not drawn)
[3] O=C1NCCCC1C(=O)Nc1ccccn1 (stereo not drawn)
[4] Cc1noc(C)c1CSCC(=O)Nc1cc(Cl)ccc1N1CCCCC1
[5] Cc1c(C(=O)C(=O)N2CC=C(c3ccccc3)CC2)c2ccccc2n1C
[6] O=C(NC1CCCCC1)C(c1ccncc1)N(C(=O)c1ccco1)c1ccc(F)cc1 (stereo not drawn)

Compound,1,2,3,4,5,6
KCNQ2 inh,i,i,i,i,i,i
KCNQ2 inh baseline,1.29,1.94,0.26,1.12,0.37,0.96

[7] N#Cc1c(NC(=O)C2CC(c3c(F)cccc3Cl)=NO2)sc2c1CCC2 (stereo not drawn)
[8] Cc1cc(F)ccc1S(=O)(=O)N1CCCOC1CNC(=O)C(=O)NCCc1c[nH]c2ccccc12 (stereo not drawn)
[9] Cc1ccc(C2C(C(=O)c3cccs3)=C(O)C(=O)N2c2ccc(S(N)(=O)=O)cc2)cc1 (stereo not drawn)
[10] O=C1CN(CC(=O)Nc2cccc(Cl)c2Cl)c2ccccc2N1
[11] COc1ccc(C2CCCN2C(=O)Nc2ccccc2)cc1OC (stereo not drawn)
[12] O=C(/C=C/c1ccc(Cl)cc1)NC(=S)Nc1ccc(C(=O)O)cc1

Compound,7,8,9,10,11,12
KCNQ2 inh,i,i,i,i,i,i
KCNQ2 inh baseline,-0.48,-0.86,-1.95,-1.13,-1.56,0.3

[13] COc1ccc(-c2c[n+]3c(n2-c2ccccc2)SCC3)cc1OC
[14] O=C(Nc1ccccc1N1CCCCC1)c1ccco1
[15] CCOC(=O)c1cnc2nc(COc3ccccc3)[nH]n2c1=O
[16] COc1cc(NS(=O)(=O)c2ccc(NC(=S)NC(=O)c3cccs3)cc2)nc(OC)n1
[17] O=c1c2ccccc2nc2n1CCN2
[18] O=C(NCCN1CCCC1)c1ccc2c(=O)n(CCc3ccccc3)c(=O)[nH]c2c1

Compound,13,14,15,16,17,18
KCNQ2 inh,i,i,i,i,i,-6.03*
KCNQ2 inh baseline,1.79,0.05,1.29,-1.22,0.05,1.8*

[19] Cc1ccc(NC(=O)c2sc3ncnc(N4CCN(c5ccccn5)CC4)c3c2C)c(C)c1
[20] CC(CN1CCN(C)CC1)OC(=O)c1cccc(F)c1 (stereo not drawn)
[21] CCN1CCN(c2ncnc3sc(C)c(-c4ccccc4)c23)CC1
[22] COc1ccc(NC(=O)C(NC(C)=O)C(=O)Nc2ccc(F)cc2)cc1 (stereo not drawn)
[23] O=C(COc1ccc([N+](=O)[O-])cc1)Nc1ccc2c(c1)OCO2
[24] Cc1ccc(OCC(=O)N2CCCCCC2)c(C)c1

Compound,19,20,21,22,23,24
KCNQ2 inh,i,i,i,i,i,i
KCNQ2 inh baseline,-0.67,-1.01,-1.06,-0.62,0.09,0.03

# Results in sequence from above:
# Entries 6 to 13 in KCNQ2 inh, in turn: i, i, i, i, i, i, i, i

# Following part:
[25] CCOc1ccc(N(CC(=O)N2CCCCCC2)S(C)(=O)=O)cc1
[26] CCOc1ccc(-n2c(SCC(=O)NC)nnc2-c2ccco2)cc1
[27] NC(=O)C1(c2ccccc2)OC1c1ccccc1 (stereo not drawn)
[28] OCCNCCCCOc1cccc(Br)c1
[29] O=C(Nc1ccccc1)C1=C[C@@H](c2ccc(Br)cc2)C[C@@H](OCc2ccc(CO)cc2)O1
[30] CCNC(=O)C1CC(=O)N(Cc2ccc3c(c2)OCO3)C(=Nc2ccc(F)cc2)S1 (stereo not drawn)

Compound,25,26,27,28,29,30
KCNQ2 inh,i,i,i,i,i,i
KCNQ2 inh baseline,-0.33,0.81,0.8,0.64,-1.05,-1.16

[31] CSCCC(NC(=O)COc1ccccc1)C(=O)OCC(=O)c1ccccc1 (stereo not drawn)
[32] COc1cccc(S(=O)(=O)N2CCN(c3ccccc3F)CC2)c1
[33] O=C(O)CN1CCN(Cc2ccc(F)cc2)C1=O
[34] COc1cc(NS(=O)(=O)c2ccc(N/C=C(\C#N)c3nc4cc(Cl)ccc4o3)cc2)nc(OC)n1
[35] COc1ccccc1NC(=S)N(Cc1ccc(Cl)cc1)CC1CCC(C(=O)O)CC1 (stereo not drawn)
[36] COc1ccccc1C1c2ccc3ccccc3c2Oc2ncn(CCCO)c(=N)c21 (stereo not drawn)

Compound,31,32,33,34,35,36
KCNQ2 inh,i,i,i,i,i,i
KCNQ2 inh baseline,1.7,1.83,-0.64,0.79,-0.27,-0.92

[37] Cc1ccc(C(=O)c2coc3ccc(O)cc23)cc1
[38] CC(C)(C)Cc1nnc(NS(=O)(=O)Cc2ccccc2)s1
[39] Cc1ccnc(NC(=O)c2cc(S(=O)(=O)N3CCCCC3)ccc2Cl)c1
[40] O=C(NCC(=O)N(CC1CCCO1)C(C(=O)NC1CCCCC1)c1ccccc1)c1cccs1 (stereo not drawn)
[41] COc1ccccc1C(C(=O)NCc1ccccc1)N(C(=O)c1csnn1)C1CC1 (stereo not drawn)
[42] O=C(NCc1ccc(OC(F)(F)F)cc1)C1CC2Cn3c(nc4ccccc43)C2N1c1ccccc1 (stereo not drawn)

Compound,37,38,39,40,41,42
KCNQ2 inh,i,i,i,i,i,i
KCNQ2 inh baseline,0.41,4.02,0.22,-1.52,2.76,-0.78

# Quoted from the listing, 14 compounds:
[11] COc1ccc(C2CCCN2C(=O)Nc2ccccc2)cc1OC (stereo not drawn)
[12] O=C(/C=C/c1ccc(Cl)cc1)NC(=S)Nc1ccc(C(=O)O)cc1
[13] COc1ccc(-c2c[n+]3c(n2-c2ccccc2)SCC3)cc1OC
[14] O=C(Nc1ccccc1N1CCCCC1)c1ccco1
[15] CCOC(=O)c1cnc2nc(COc3ccccc3)[nH]n2c1=O
[16] COc1cc(NS(=O)(=O)c2ccc(NC(=S)NC(=O)c3cccs3)cc2)nc(OC)n1
[17] O=c1c2ccccc2nc2n1CCN2
[18] O=C(NCCN1CCCC1)c1ccc2c(=O)n(CCc3ccccc3)c(=O)[nH]c2c1

Compound,11,12,13,14,15,16,17,18
KCNQ2 inh,i,i,i,i,i,i,i,-6.03*
KCNQ2 inh baseline,-1.56,0.3,1.79,0.05,1.29,-1.22,0.05,1.8*

[19] Cc1ccc(NC(=O)c2sc3ncnc(N4CCN(c5ccccn5)CC4)c3c2C)c(C)c1
[20] CC(CN1CCN(C)CC1)OC(=O)c1cccc(F)c1 (stereo not drawn)
[21] CCN1CCN(c2ncnc3sc(C)c(-c4ccccc4)c23)CC1
[22] COc1ccc(NC(=O)C(NC(C)=O)C(=O)Nc2ccc(F)cc2)cc1 (stereo not drawn)
[23] O=C(COc1ccc([N+](=O)[O-])cc1)Nc1ccc2c(c1)OCO2
[24] Cc1ccc(OCC(=O)N2CCCCCC2)c(C)c1

Compound,19,20,21,22,23,24
KCNQ2 inh,i,i,i,i,i,i
KCNQ2 inh baseline,-0.67,-1.01,-1.06,-0.62,0.09,0.03

# (next part)
[43] Nc1nc2n(n1)C1(CCCCC1)C1=C(CCCC1)N2
[44] CC1(c2ccccc2)NC(=O)N(CC(=O)Nc2cccc(/C=C/c3ccccn3)c2)C1=O (stereo not drawn)
[45] OCCC1CN(Cc2cccn2-c2cccnc2)CCN1C1CCCC1 (stereo not drawn)
[46] CCOC(=O)Cn1nc(C)c(NC(=O)c2ccc(Br)o2)c1C
[47] Cc1ccc(/C=N/N2CCN(Cc3cccc4ccccc34)CC2)s1
[48] CCn1c(SCC(=O)Nc2nc(-c3ccccc3)cs2)nnc1-c1ccccc1

Compound,43,44,45,46,47,48
KCNQ2 inh,i,i,i,i,i,i
KCNQ2 inh baseline,0.8,-0.71,0.71,-2.66,1.38,-0.46

[49] Cn1nc(C(=O)NC2CCCCC2)c2c1-c1ccccc1SC2
[50] Oc1ccccc1-c1cc(-c2ccc(F)cc2)n[nH]1
[51] COc1ccc(NC(=O)c2oc3ccccc3c2C)cn1
[52] COc1ccc(OCc2nnc(SCC(=O)Nc3ccc(C)cc3)o2)cc1
[53] O=c1c(C(c2ccc(Br)cc2)c2c(O)nc3n(c2=O)CCS3)c(O)nc2n1CCS2
[54] CC(C)(C)N1CC(c2nc3ccccc3n2Cc2ccc(F)cc2)CC1=O (stereo not drawn)

Compound,49,50,51,52,53,54
KCNQ2 inh,i,i,i,i,i,-5.93*
KCNQ2 inh baseline,-2.08,0.3,0.4,3.13,-0.01,-1.7*

[55] O=[N+]([O-])c1cccc(S(=O)(=O)NCc2ccccn2)c1
[56] Cc1ccc(S(=O)(=O)c2c(C)cc(C)nc2N2CCOCC2)cc1
[57] Cc1c(Cl)cccc1NC(=S)NCCC(c1ccccc1)c1ccccc1
[58] O=C(c1ccc([N+](=O)[O-])cc1)N1CCC(Cc2ccccc2)CC1
[59] Cc1cc(C)n(-c2cc(-n3nc(C)cc3C)ncn2)n1
[60] CC(=O)NCCc1nc2cc(NC(=O)COc3ccc(C)cc3)ccc2n1C

Compound,55,56,57,58,59,60
KCNQ2 inh,i,i,i,i,i,i
KCNQ2 inh baseline,1.27,-0.04,1.59,0.85,0.79,0.24

[61] CC(=O)NC(Cc1ccccc1C)C(=O)NC1CCN(c2ncccc2[N+](=O)[O-])CC1 (stereo not drawn)
[62] CCOC(=O)C1CN(S(=O)(=O)c2ccc(OC)cc2)c2cc(S(=O)(=O)CC)ccc2O1 (stereo not drawn)
[63] CCc1ccccc1OCCCCN1CCCCC1
[64] COc1ccccc1NC(=O)COC(=O)C1C2CC3OC(=O)C1C3C2 (stereo not drawn)
[65] C1=Nc2c(Nc3ccccc3)ncnc2Oc2ccccc21
[66] CCOC(=O)Nc1ccc(C(=O)Oc2ccccc2)c(O)c1

Compound,61,62,63,64,65,66
KCNQ2 inh,i,i,i,i,i,i
KCNQ2 inh baseline,0.02,0.89,-1.23,1.16,-0.02,0.22
